Screening results from PubChem BioAssay.
BJeLR viability = lowers viability of BJeLR cells; viability loss activity score, % (no concentration beside the values); actives 0.64% (n = 30,000); BJeLR fibroblasts viability, CellTiterGlo ATP luminescence, 48 h; HRASV12, hTERT and SV40 LT/ST transformed; in the data active = viability loss activity score above about 50%; about a fifth of its hits are not listed in these tables;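 also: higher score means fewer live cells and less ATP luminescence; stock transfer was 50 or 100 nL into about 30 µL; 0% = vehicle wells and 100% = a reference killing control; one replicate is shown; the record names a cut of 85%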
A1 inhib = blocks A1 activity; MEF A1-2A-BIM cells, caspase-Glo luminescence, 3 h; percent of clofoctol signal, DMSO as zero; actives 0.51% (n = 21,000); caspase activation, % (no concentration beside the values); AID 2241;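 active = most replicate scores above 10, or exactly half above 10 with mean activity above 10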;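 also: effector caspase 3 and 7 activity cleaving a DEVD luciferin substrate; 50 nL library stock added to about 30 µL; numbers are from one replicate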
* = called active by the depositor; . = not tested or not shown; & = joins results of further samples. An excerpt, so the mix of outcomes need not match the whole.

SMILES	BJeLR viability	A1 inhib
C[C@@H]1CN([C@@H](C)CO)C(=O)c2cc(NS(=O)(=O)c3cccs3)ccc2O[C@H]1CN(C)Cc1ccc(Oc2ccccc2)cc1	-4.4	0.2
CCNC(=O)/C(=N\O)c1ccccc1	1.6	0.4
Oc1ccc(/C=N/c2nccs2)cc1	-1.5	-0.3
COc1cc(C2Oc3c(OC)cc(CCCO)cc3C2CO)ccc1O[C@H]1O[C@H](C)[C@@H](O)[C@H](O)[C@@H]1O (some centres undefined)	29.3	1.0
COc1cc2c(cc1O)C1(Cc3ccc4c(c3C1=O)OCO4)N(C)CC2 (centres undefined)	5.5	-0.5
Cc1[nH]ccc2c1[nH]c1cc(=O)ccc12	10.4&2.1	0.4&0.6
C[C@@H]1O[C@@H](OC[C@H]2O[C@@H](Oc3ccc(O)cc3)[C@H](O)[C@@H](OC(=O)c3ccc(O)cc3)[C@@H]2O)[C@H](O)[C@H](O)[C@H]1O	-7.4	-0.1
COc1cc(C=O)cc2c1[nH]c1ccccc12	0.2	-0.7
C[C@H](CO)N1C[C@H](C)[C@@H](CN(C)Cc2ccccc2)Oc2ccc(NS(C)(=O)=O)cc2C1=O	3.5	-0.6
C[C@H]1CN([C@@H](C)CO)C(=O)c2cccc(NC(=O)Nc3ccc(F)cc3)c2O[C@@H]1CN(C)C(=O)Nc1cccc2ccccc12	-2.9	.
C[C@@H]1CN([C@H](C)CO)C(=O)c2cc(NC(=O)CCC(F)(F)F)ccc2O[C@H]1CN(C)Cc1ccc(C(=O)O)cc1	-7.5	0.4
CC(C)NC(=O)N(C)C[C@H]1Oc2ccc(NC(=O)c3ccncc3)cc2C(=O)N([C@H](C)CO)C[C@H]1C	3.6	-0.1
CCN=c1sc(C(=O)OC)cc(=O)n1CC	-5.4	.
CC(C)(CO)NCc1cccs1	2.9	.
C=CCN1C(=O)/C(=C2/Sc3ccccc3N2CC)SC1=S	2.7	-0.2
O=C(NCc1cccs1)C1CCN(c2ncnc3c2sc2cccc(F)c23)CC1	-1.7	0.1
CCC(=O)N1N=C(c2ccccc2)CC1c1cc2cc(OC)ccc2nc1Cl (centres undefined)	-3.7	-0.3
C[C@@H]1CN([C@H](C)CO)C(=O)c2cc(NC(=O)Cc3ccccc3)ccc2O[C@H]1CN(C)Cc1ccc(C(=O)Nc2ccccc2N)cc1	1.2	.
COc1ccc(NC(=O)N(C)C[C@H]2Oc3ccc(N(C)C)cc3C(=O)N([C@@H](C)CO)C[C@H]2C)cc1	2.0	-0.2
COc1ccc2cc(C(=O)Nc3ccc(O)cc3)sc(=O)c2c1OC	-2.7	1.6
C[C@H](CO)N1C[C@H](C)[C@H](CN(C)C(=O)Nc2cccc3ccccc23)Oc2c(NC(=O)Nc3ccccc3)cccc2C1=O	-0.7	.
CNC(=O)Nc1ccc(C(=O)OC)cc1	1.9	0.6
C[C@@H]1CN([C@H](C)CO)C(=O)c2cccc(NC(=O)c3nc4ccccc4s3)c2O[C@@H]1CN(C)S(=O)(=O)c1ccccc1	-6.7	.
CCCNC(=O)Cn1nc(C(F)(F)F)cc1C	-0.9	0.7
CCOC(=O)c1cc(C#N)c(C)nc1N1CCN(S(=O)(=O)c2ccccc2)CC1	-9.7	.

(next part)
SMILES	BJeLR viability	A1 inhib
C[C@H]1CN([C@@H](C)CO)C(=O)c2cccc(NS(C)(=O)=O)c2O[C@H]1CN(C)C(=O)Nc1ccccc1	4.7	.
C=CCN1C(=O)C(CC(=O)Nc2ccccc2)SC1=Nc1ccc(O)cc1 (centres undefined)	-1.9	-0.2
C[C@H]1CN([C@@H](C)CO)C(=O)c2cccc(NC(=O)Nc3ccc(C(F)(F)F)cc3)c2O[C@@H]1CN(C)C(=O)Nc1cccc2ccccc12	-3.3	.
C[C@H]1CN([C@@H](C)CO)C(=O)c2cccc(NS(=O)(=O)c3ccccc3)c2O[C@@H]1CN(C)C(=O)Nc1ccccc1	-2.3	.
CC(C)NC(=O)N(C)C[C@@H]1Oc2c(NC(=O)Nc3ccc4c(c3)OCO4)cccc2C(=O)N([C@H](C)CO)C[C@H]1C	-1.3	.
COc1cccc(-c2cc(C(F)(F)F)nc(-n3cccn3)n2)c1	0.1	.
O=C1c2ccccc2C(=O)N1CSc1nc2ccccc2s1	-3.5	-0.7
CC1=C/C(=C\N(C)c2ccccc2)C(=O)S1	-1.5	0.2
C[C@H]1CN([C@@H](C)CO)C(=O)c2cc(NC(=O)Nc3ccc4c(c3)OCO4)ccc2O[C@H]1CN(C)S(C)(=O)=O	2.0	-0.6
COc1ccc(S(=O)(=O)NCC23CC4CC(CC(C4)C2)C3)cc1	-3.6	0.4
C[C@@H]1CN([C@@H](C)CO)C(=O)c2cc(NC(=O)CCCN(C)C)ccc2O[C@@H]1CN(C)Cc1ccc(C(F)(F)F)cc1	-3.6	-0.3
CNC[C@@H]1Oc2ccc(NS(=O)(=O)c3ccc(OC)cc3)cc2C(=O)N([C@@H](C)CO)C[C@@H]1C	-2.3	0.4
CCN(Cc1ccncc1)C(=O)C(CO)c1ccccc1 (centres undefined)	1.9	0.1
COC(=O)COc1ccc(Oc2nc(SC)nc(N(C)C)n2)nn1	-1.4	1.1
COc1ccc(CN(C)C[C@H]2Oc3c(NS(C)(=O)=O)cccc3C(=O)N([C@@H](C)CO)C[C@H]2C)cc1	-4.0	.
C[C@H]1CN([C@@H](C)CO)C(=O)c2cccc(NC(=O)Nc3ccc(C(F)(F)F)cc3)c2O[C@H]1CN(C)S(=O)(=O)c1cn(C)cn1	-3.1	.
C[C@H]1CN([C@@H](C)CO)C(=O)c2cc(NC(=O)Nc3ccc4c(c3)OCO4)ccc2O[C@@H]1CN(C)Cc1ccc(C(F)(F)F)cc1	-0.3	0.4
C[C@H](CO)N1C[C@H](C)[C@H](CN(C)C(=O)NC2CCCCC2)Oc2ccc(NC(=O)NC3CCCCC3)cc2C1=O	-2.9	0.5
C[C@H](CO)N1C[C@H](C)[C@H](CN(C)S(=O)(=O)c2ccccc2)Oc2ccc(NC(=O)NC3CCCCC3)cc2C1=O	-1.6	-0.1
Cc1noc(C)c1S(=O)(=O)N(C)C[C@H]1Oc2c(NC(=O)c3ccc(-c4nccs4)cc3)cccc2C(=O)N([C@@H](C)CO)C[C@H]1C	-0.9	.
COc1cc2occc2c(O[C@@H]2O[C@H](CO)[C@@H](O)[C@H](O)[C@H]2O)c1CCC(=O)O	.	0.4
C[C@@H]1CN([C@H](C)CO)C(=O)c2cc(NS(=O)(=O)c3ccccc3)ccc2O[C@H]1CN(C)C(=O)Nc1ccc2c(c1)OCO2	-3.2	-0.1
CCOC(=O)C1=NN(c2ccccc2)C2(C(=O)c3ccccc3C2=O)C1c1ccc(C)cc1 (centres undefined)	-1.7	1.7
C/C(=C/C(=O)O)CCC1C(C)CCC2C(C)(C=O)C(O)CCC12C (centres undefined)	-26.4	0.3
COc1cc(/C=C/CO)cc(OC)c1OC/C=C(\C)CCC=C(C)C	-2.6	0.1

Quoted at random: 5 records from the list, in no set order.
SMILES	BJeLR viability	A1 inhib
C[C@H]1CN([C@@H](C)CO)C(=O)c2cccc(NS(=O)(=O)c3ccccc3)c2O[C@@H]1CN(C)C(=O)Nc1ccccc1	-2.3	.
CC(C)NC(=O)N(C)C[C@@H]1Oc2c(NC(=O)Nc3ccc4c(c3)OCO4)cccc2C(=O)N([C@H](C)CO)C[C@H]1C	-1.3	.
C[C@H]1CN([C@@H](C)CO)C(=O)c2cc(NC(=O)Nc3ccc4c(c3)OCO4)ccc2O[C@H]1CN(C)S(C)(=O)=O	2.0	-0.6
CCOC(=O)C1=NN(c2ccccc2)C2(C(=O)c3ccccc3C2=O)C1c1ccc(C)cc1 (centres undefined)	-1.7	1.7
C[C@@H]1CN([C@H](C)CO)C(=O)c2cc(NS(=O)(=O)c3ccccc3)ccc2O[C@H]1CN(C)C(=O)Nc1ccc2c(c1)OCO2	-3.2	-0.1

The list goes on:
SMILES	BJeLR viability	A1 inhib
C[C@@H]1CN([C@@H](C)CO)C(=O)c2cccc(NS(=O)(=O)c3ccccc3)c2O[C@@H]1CN(C)CC1CC1	1.1	.
CC(C)(C)c1ccc(C(=O)NN)s1	3.6	-0.9
COc1ccc(NC(=O)N(C)C[C@H]2Oc3c(NC(=O)Nc4ccc(F)cc4)cccc3C(=O)N([C@H](C)CO)C[C@@H]2C)cc1	-0.4	.
CC(C)NC(=O)N(C)C[C@@H]1Oc2ccc(NC(=O)C3CCCCC3)cc2C(=O)N([C@@H](C)CO)C[C@H]1C	1.3	-0.2
COC(=O)c1cc(O)cc(OC)c1C(=O)c1c(O)cc(C)cc1OC	3.4	-0.9
Cc1cccc(-n2c(SCC(=O)NCc3ccccc3)nc3c(oc4ccccc43)c2=O)c1	-4.2	.
C[C@H](CO)N1C[C@H](C)[C@H](CN(C)Cc2ccc3c(c2)OCO3)Oc2ccc(NS(=O)(=O)c3ccc(F)cc3)cc2C1=O	-4.9	-0.3
Cc1noc(C)c1S(=O)(=O)Nc1cccc2c1O[C@H](CN(C)S(C)(=O)=O)[C@H](C)CN([C@H](C)CO)C2=O	19.6	.
O=C(NCCO)c1cc2ccccc2oc1=O	0.1	0.3
O=C(c1ccccc1)c1cnc2ccccn2c1=O	4.7	0.1
C[C@H](CO)N1C[C@H](C)[C@@H](CN(C)C(=O)Nc2ccc(C(F)(F)F)cc2)Oc2ccc(NS(=O)(=O)c3cn(C)cn3)cc2C1=O	5.2	0.0
C[C@@H]1CN([C@H](C)CO)C(=O)c2cc(NC(=O)Nc3ccccc3)ccc2O[C@@H]1CN(C)Cc1ccc(C(=O)Nc2ccccc2N)cc1	11.1	.
COc1ccc(S(=O)(=O)N(C)C[C@H]2Oc3c(NC(=O)C4CCCCC4)cccc3C(=O)N([C@H](C)CO)C[C@@H]2C)cc1	14.6	.
C[C@@H]1CN([C@@H](C)CO)C(=O)c2cccc(NS(=O)(=O)c3ccccc3)c2O[C@@H]1CN(C)Cc1ccncc1	-3.2	.
C[C@@H]1CN([C@@H](C)CO)C(=O)c2cc(NS(=O)(=O)c3cccs3)ccc2O[C@H]1CN(C)S(=O)(=O)c1ccc(F)cc1	-3.8	0.1
O=C(Nc1ccccc1)Nc1cc(C2CC2)nn1-c1ccccc1	-4.1	-0.2
COc1ccc(-n2nc(C(=O)NCC(=O)N3CCCC3)c3ccccc3c2=O)cc1	5.1	.
COC(=O)CNC(=O)c1cc(OC)c(OC)c(OC)c1	0.4	0.4
N#C/C(=C\c1ccc(O)c(O)c1)C(=O)NCCCc1ccccc1	-7.1	-0.7
C[C@@H]1CN([C@H](C)CO)C(=O)c2cc(NC(=O)C3CC3)ccc2O[C@@H]1CN(C)S(=O)(=O)c1ccc(Cl)cc1	1.7	0.0
O=C(NCc1cccc(Cl)c1)c1cnc2ccccn2c1=O	10.7	-0.3
COc1ccc(S(=O)(=O)N(C)C[C@H]2Oc3c(NC(=O)c4ccncc4)cccc3C(=O)N([C@@H](C)CO)C[C@@H]2C)cc1	0.1	.
C[C@@H]1CN([C@H](C)CO)C(=O)c2cc(NC(=O)Cc3cn(C)c4ccccc34)ccc2O[C@@H]1CN(C)Cc1ccc(-c2ccccc2)cc1	-3.7	0.1
C[C@H](CO)N1C[C@H](C)[C@H](CN(C)CC2CC2)Oc2ccc(NS(C)(=O)=O)cc2C1=O	-5.0	0.0
CC(C)Sc1nc(-c2cccs2)cc(C(F)(F)F)c1C#N	-2.8	0.5

Next part:
SMILES	BJeLR viability	A1 inhib
Cc1cc(C(=O)Nc2cccc3c2O[C@H](CN(C)S(=O)(=O)c2cn(C)cn2)[C@H](C)CN([C@@H](C)CO)C3=O)n(C)n1	3.3	.
Oc1[nH]c2ccccc2c1C=NCc1ccccc1	3.7	-0.4
C[C@H]1CN([C@@H](C)CO)C(=O)c2cc(NC(=O)Nc3ccc(F)cc3)ccc2O[C@@H]1CN(C)Cc1ccc(-c2ccccc2)cc1	-3.1	-0.5
COc1cc([C@H]2OC[C@H]3[C@@H]2CO[C@@H]3c2cc(OC)c(O[C@@H]3O[C@H](CO)[C@@H](O)[C@H](O)[C@H]3O)c(OC)c2)cc(OC)c1O	.	0.3
C[C@@H]1CN([C@@H](C)CO)C(=O)c2cc(NC(=O)Nc3ccc(C(F)(F)F)cc3)ccc2O[C@@H]1CN(C)Cc1ccc2c(c1)OCO2	-1.8	-0.7
Cc1cc(-c2ccc(/C=C3/C(=O)NC(=O)N(C4CCCCC4)C3=O)o2)ccc1Br	-0.8	.
COC(CN(C)S(=O)(=O)c1ccc2c(c1)oc(=O)n2C)OC	-1.4	.
CC(C)NC(=O)N(C)C[C@@H]1Oc2c(NS(C)(=O)=O)cccc2C(=O)N([C@@H](C)CO)C[C@H]1C	6.6	.
CC1=C(C(=O)NC2CCCCC2)C2(CCCCC2)OC1=O	-3.3	.
C[C@H](CO)N1C[C@H](C)[C@@H](CN(C)C(=O)Nc2cccc3ccccc23)Oc2ccc(NC(=O)Cn3cnnn3)cc2C1=O	4.6	-0.4
O=C1CCc2cc(C3=CSC4=NCCN34)ccc2N1	5.2	-0.2
COc1ccc(CC(=O)Nc2c(-c3ccc(F)cc3)nc3ccccn23)cc1	20.0	.
CSc1cccc(NS(=O)(=O)c2cccs2)c1	-4.3	.
CC(C)NC(=O)N(C)C[C@@H]1Oc2c(NC(=O)Nc3ccc(C(F)(F)F)cc3)cccc2C(=O)N([C@H](C)CO)C[C@@H]1C	0.3	.
CNC[C@H]1Oc2ccc(NC(=O)Cc3cn(C)c4ccccc34)cc2C(=O)N([C@H](C)CO)C[C@@H]1C	2.0	-0.2
C=CCSc1nnc2c(n1)OC(c1ccc(-c3ccc(F)cc3)o1)N(C(C)=O)c1ccccc1-2 (centres undefined)	-3.4	0.1

Single records (already shown):
`CC(C)(C)c1ccc(C(=O)NN)s1` is listed as BJeLR viability: 3.6; A1 inhib: -0.9
`COc1cc(C=O)cc2c1[nH]c1ccccc12` is listed as BJeLR viability: 0.2; A1 inhib: -0.7
